ALR inh = inhibitors of human ALR sulfhydryl oxidase, primary screen, biochemical, H2O2 detection, HRP-luminol luminescence, single point; FAD-linked sulfhydryl oxidase ALR (Homo sapiens), P55789; purified ALR, DTT oxidation; inhibition, % (concentration not given with the values); hit rate 3.8% among 290,000; AID 485317, 2010;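 active means mean and each replicate at 75% or more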;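 further: stock transfer was 7.5 nL into about 7.5 µL; 0% = neutral wells and 100% = wells with inactivated enzyme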
Target sequence (P55789 whole entry, looked up): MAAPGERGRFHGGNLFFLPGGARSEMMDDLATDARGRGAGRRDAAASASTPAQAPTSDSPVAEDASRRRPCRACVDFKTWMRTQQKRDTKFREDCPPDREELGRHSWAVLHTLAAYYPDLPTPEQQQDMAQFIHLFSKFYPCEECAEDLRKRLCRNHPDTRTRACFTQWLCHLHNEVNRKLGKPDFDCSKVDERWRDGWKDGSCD
Ecoli growth = E. coli growth inhibition, primary screen, OD600; AID 1053175, 2014; hit rate 0.21% among 330,000; Escherichia coli growth, 23 h; active compounds read low; OD600 absorbance (concentration not given with the values);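 active means OD600 absorbance below the run mean of sample wells minus 3.6 SD, in any replicate, cut at about 0.56 in these data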;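 further: stock transfer was 300 nL into about 60 µL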
HNF4A DNA FP = change in binding of human HNF4A to DNA, primary screen, biochemical, fluorescence polarization, FITC-DNA | hit rate 0.3% among 360,000 | AID 1224865, 2016 | 1 h | activity change, % at 10 µM | Hepatocyte nuclear factor 4-alpha (Homo sapiens), P41235; in the data active means activity change above about 30%, passing the limit was not always enough;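 further: controls were the assay level and a saturating level of protein; the project sought stronger binding though the title names inhibitors; some compounds called inactive have numbers as strong as hits; positive values seem to mean higher polarization but the record does not say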
LANA-H2B inh = blockers of LANA interaction with H2A/H2B – biochemical, FP readout, HTS, primary screen. hit rate 0.6% among 320,000. cell-free LANA-H2A/H2B peptide, fluorescence polarization. AID 2629, 2010. inhibition, % (concentration not given with the values); in the data active means inhibition mostly above about 10%, no sharp cut-off; inactive means mostly below about 6.7%;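 further: stock transfer was 7.5 nL into about 10 µL; 0% = median of vehicle wells and 100% = median of positive control wells; one replicate is shown; the record names a cut of 25% in any replicate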
FGF22 binding = binders of human FGF22 protein, primary screen, FGF22 synaptogenesis inhibitor project, biophysical, thermal shift, single point. Fibroblast growth factor 22 (Homo sapiens), Q9HCT0. recombinant FGF22 thermal shift, SYPRO orange fluorescence; percent of sucrose octasulfate shift, DMSO zero. calls only at 9.99 µM. hit rate 1.5% among 340,000;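 active means melting point raised past a set limit in the mean and every replicate; three in four hits are not shown here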
Target sequence (Q9HCT0 whole entry, looked up): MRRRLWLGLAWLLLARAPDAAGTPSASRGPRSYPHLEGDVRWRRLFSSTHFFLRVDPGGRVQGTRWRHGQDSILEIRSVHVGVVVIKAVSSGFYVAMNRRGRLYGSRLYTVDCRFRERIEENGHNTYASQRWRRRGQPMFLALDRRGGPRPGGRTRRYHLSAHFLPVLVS
UCH37 DUB inh = inhibitors of human UCH37 deubiquitinase, primary screen, biochemical, Ub-AMC cleavage, fluorescence; Ubiquitin carboxyl-terminal hydrolase isozyme L5 (Homo sapiens), Q9Y5K5; purified proteasome/UCH37; inhibition, % (concentration not given with the values); hit rate 0.33% among 330,000; AID 588478, 2011;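 active means mean of two replicates above 20%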;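 further: 0% = compound-free wells with enzyme and 100% = wells lacking proteasome; stock transfer was 100 nL into about 20 µL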
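Material: human UCH37 enzyme supplied as purified proteasome complex / Amount: 0.15 nM proteasome as dispensed / Buffer or medium: pH 7.4 Tris-HCl (50 mM) with ovalbumin, ATP-MgCl2, DTT / Times: preincubation 30 min, reaction 25 min, room temperature / Technique: AMC fluorescence from Ub-AMC cleavage, excitation 355 nm, emission 460 nm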
Beta2AR agonist = beta2AR agonists driving receptor internalization, primary screen, cell-based, FAP fluorogen, flow cytometry | response, % (no concentration beside the values) | Beta-2 adrenergic receptor (Homo sapiens), P07550 | Am2.2-beta2AR cells; reference of the scale not given here | hit rate 0.43% among 340,000;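 active means response above a set limit, near 3 SD of response in nonfluorescent compounds, cut at about 42% in these data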;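 further: stock transfer was 100 nL into about 11 µL; a reference agonist was the positive control; negative values mostly stem from fluorescent compounds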
Target sequence (P07550 whole entry, looked up): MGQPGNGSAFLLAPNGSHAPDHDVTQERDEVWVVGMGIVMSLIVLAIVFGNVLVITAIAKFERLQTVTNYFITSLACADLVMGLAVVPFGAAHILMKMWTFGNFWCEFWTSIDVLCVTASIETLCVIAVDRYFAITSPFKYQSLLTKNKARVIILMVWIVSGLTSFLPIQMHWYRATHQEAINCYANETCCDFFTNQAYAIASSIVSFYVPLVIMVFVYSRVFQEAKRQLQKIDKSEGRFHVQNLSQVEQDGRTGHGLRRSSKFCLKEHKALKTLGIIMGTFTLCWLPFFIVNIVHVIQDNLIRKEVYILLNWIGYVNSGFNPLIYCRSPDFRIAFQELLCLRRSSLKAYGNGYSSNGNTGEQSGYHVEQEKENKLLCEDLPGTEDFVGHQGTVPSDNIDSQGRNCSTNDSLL
Active calls of the source: *; i = inactive; . = no result given; & = joins results of further samples. The list is partial (hit frequency here may not be typical).

SMILES	ALR inh	Ecoli growth	HNF4A DNA FP	LANA-H2B inh	FGF22 binding	UCH37 DUB inh	Beta2AR agonist
COc1ccc(N2CCN(C(=O)COc3ccc4ccccc4c3)CC2)cc1	-11	0.74	-0.5	-0.2	.	-2.5	2
CNC(=O)c1[nH]cnc1C(=O)N[C@@H](Cc1ccccc1)C(=O)OC(C)(C)C	2	.	2.6	-1.7	i	5.1	8
COC(=O)c1ccc(N=Nc2ccccc2)cc1	-164	0.65	0.0	-1.2	i	4.7	-1
Cc1ccc2nc(-c3ccc(-c4cccc(Cl)c4)cc3)c(NCc3ccccc3)n2c1	.	0.73	11	-0.1	i	-217	4
CCOC(=O)c1sc(NC(=O)c2ccccc2F)c(C(N)=O)c1C	-5	0.71	-0.2	8.5	.	-169	14
O=C(CNC(=O)N1CC(=O)Nc2ccccc21)Nc1ccc(F)c(Cl)c1	-3	0.64	3.4	-3.2	i	4.7	-6
CCCN(CC(=O)Nc1ccccc1OC)C(=O)CCC(=O)c1ccc(OCC)cc1	.	0.67	4.9	-2.9	i	4.0	21
O=[N+]([O-])c1cc([N+](=O)[O-])c(Oc2cc(F)ccc2F)cc1NN1CCCCC1	3	0.7	4.0	0.2	i	3.6	2
CC(C)(C)C(=O)O/N=C(\N)c1ccc(Oc2cc(Cl)cc(Cl)c2)c([N+](=O)[O-])c1	-8	.	3.1	-0.7	i	.	5
O=C(Nc1ccc([N+](=O)[O-])cc1)c1cc(Cl)sc1Cl	-3	0.67	-1.2	-1.4	i	2.9	3
C=CCSc1ccccc1C(=O)Nc1ncn[nH]1	-5	0.66	-3.7	0.7	i	1.7	10
NC(=O)c1cccn1-c1ncc(C(F)(F)F)cc1Cl	2	0.68	5.5	-6.1	i	1.8	4
O=C1c2ccccc2C(=O)N1CCCc1nc2ccccc2c(=O)n1CCCn1ccnc1	-26	0.7	-2.4	1.7	.	0.7	-5
Cc1ccnc(NS(=O)(=O)c2cc(C(F)(F)F)ccc2Cl)c1	-8	0.69	.	-1.0	i	0.2	.
C=CCn1c(C)cc(C)c(C#N)c1=O	-5	0.69	3.5	-4.9	.	-3.2	8
COc1cc(/C(C)=N/NC(=O)CSc2nncn2C)ccc1OCc1ccccc1Cl	9	.	-3.3	-5.9	i	.	7
CCC[C@@H](CN1CCC[C@H]1CN1C(N)=NC[C@H]1CC(C)C)N1C[C@@H](Cc2ccccc2)N(CCc2ccc(Cl)c(Cl)c2)C1=N	-8	0.059*	3.8	-220	i	8.8	1
COC(=O)c1ccc(CSc2nnc(Nc3ccccc3OC)s2)o1	1	0.67	.	-7.6	.	3.8	.
CCOc1ccc(OCCC(=O)N(CC)CC(=O)Nc2c(F)cccc2F)cc1	-1	0.69	-0.4	-0.2	i	-2.8	-3
CC(C)CCNCC(O)CON=C1c2ccccc2-c2ccccc21 (centres undefined)	-8	0.63	-1.6	-5.3	i	1.2	12
O=C(Nc1ccccc1C(=O)Nc1ccc(Br)cn1)c1ccccc1Cl	.	0.67	1.7	1.2	i	-0.9	-3
COc1ccc(-n2c(Cc3cc(=O)[nH]c(=O)[nH]3)nnc2SCC(=O)N2CCC(C)CC2)cc1	-5	0.74	-3.8	-1.4	i	4.1	0
CN(C)Cc1nc2ccccc2c(=O)n1CC#N	-10	0.69	2.0	-2.5	i	0.7	-3
CC(C)C(C(=O)NCC1CCCO1)N(Cc1ccccc1)C(=O)CNS(=O)(=O)c1ccccc1 (centres undefined)	.	0.65	5.1	-0.1	i	0.2	2
CC(=O)NC12CC3CC(C1)CC(C(=O)N(C)Cc1cccc(Cl)c1Cl)(C3)C2	-18	0.72	-3.0	3.1	i	3.1	3

Record cards (already shown). Screens in order: ALR inh | Ecoli growth | HNF4A DNA FP | LANA-H2B inh | FGF22 binding | UCH37 DUB inh | Beta2AR agonist
COc1ccc(-n2c(Cc3cc(=O)[nH]c(=O)[nH]3)nnc2SCC(=O)N2CCC(C)CC2)cc1 reads -5 | 0.74 | -3.8 | -1.4 | i | 4.1 | 0
Cc1ccc2nc(-c3ccc(-c4cccc(Cl)c4)cc3)c(NCc3ccccc3)n2c1 reads . | 0.73 | 11 | -0.1 | i | -217 | 4

Later entries.
SMILES	ALR inh	Ecoli growth	HNF4A DNA FP	LANA-H2B inh	FGF22 binding	UCH37 DUB inh	Beta2AR agonist
CCCCS(=O)(=O)N1CCCC(C(=O)NCCc2ccccc2)C1 (centres undefined)	-3	0.65	-0.3	-1.8	i	1.2	1
COc1ccc(C(=O)Nc2ccc3c(c2)C(=O)c2ccccc2C3=O)cc1OC	-3	0.71	-13	-0.7	.	3.2	6
O=C(CCNC(=O)c1ccc(Br)cc1)NCC1COc2ccccc2O1 (centres undefined)	0	0.71	-0.5	-0.3	i	3.7	-1
O=C(C1=NN[C@@H]2C(=O)N(c3cccc(C(F)(F)F)c3)C(=O)[C@H]12)C(c1ccccc1)c1ccccc1	-3	0.68	-2.0	-0.5	.	4.6	9
CCCOC(=O)Cc1n[nH]c(=O)[nH]c1=O	-3	0.77	-3.2	0.6	.	6.4	-10
COc1ccccc1Oc1ccc(N2CC(C(=O)OCC(=O)c3ccccc3)CC2=O)cc1 (centres undefined)	-5	0.7	-2.0	-1.4	i	5.5	5
CC(C)(C)NC(=O)N1CCN(c2nc(-c3ccccc3)ns2)CC1	2	0.65	1.6	1.4	i	2.7	3
CCC(=O)NC(=S)Nc1ccc(NC(=O)c2ccco2)c(OC)c1	.	0.63	-0.4	4.7	.	2.9	-15
COc1cc(Br)c(C(C)NC(=O)c2ccccc2)cc1OC (centres undefined)	-3	0.67	-1.3	3.3	i	5.4	-7
O=C(CCCOc1ccc(Cl)cc1)Nc1ccc(N2CCOCC2)cc1	-7	0.66	2.5	-2.3	i	0.9	1
Cc1nn(Cc2ccc(F)cc2)c2sc(C(=O)Nc3ccccc3N3CCOCC3)cc12	0	0.72	-5.1	0.5	i	5.4	-18
Nc1ccc(S(=O)(=O)N2CCCC2)cc1	-25	0.76	1.8	0.8	i	-1.9	9
CCCc1cc(C(=O)NNC(=S)NCC2CCCO2)cs1 (centres undefined)	58	0.64	-1.7	5.2	.	-1.1	-6
COC(=O)c1c(-c2c(Cl)cccc2Cl)noc1NC(=O)N(C)C	-29	0.67	1.5	0.2	i	2.2	1
N#Cc1ccccc1NC(=O)CNc1cc(S(=O)(=O)N2CCOCC2)ccc1NCC1CCCO1 (centres undefined)	.	0.69	0.2	.	i	0.1	6
CCn1c(SCC(=O)Nc2nc(C)cs2)nnc1-c1ccncc1	-9	0.67	3.3	0.6	i	2.5	-6
Clc1cccc(Cl)c1NC1=NCCN1	-18	0.65	.	-2.7	.	-0.2	.
Cc1cn(CC(=O)NCCCc2ccccc2)c(=O)[nH]c1=O	.	.	-0.5	.	i	.	2
COc1ccccc1Nc1nc(C)cs1	99*	0.67&0.73	9.1&4.7	-2.7&-2.6	.	-0.7&4.6	6&9
COc1ccc(S(=O)(=O)N2CCN(c3ccccc3OC)CC2)cc1	.	0.69	3.0	-2.5	i	6.0	4
COc1ccc(-c2nc(-c3ccccn3)no2)cc1	0	0.69	1.2	0.5	i	3.8	-22
CC(NC(=O)C1CCN(c2nnc(N3CCCC3=O)s2)CC1)c1ccccc1 (centres undefined)	10	0.77	-1.0	-1.0	i	3.5	4
CC(=O)c1nn(-c2cccc(Br)c2)cc1C(=O)c1ccccc1	-8	0.7	-0.6	0.0	.	3.8	-2
Cc1cc(OC(=O)N2CCCCC2)cc(C)c1Cl	2	0.7	-2.7	-1.7	.	-0.7	9
CN1OC[C@@H]2CN[C@H](c3cccc(-c4ccc(C#N)cc4)c3)C[C@@H]21	.	.	8.1	.	i	.	7

(next part)
SMILES	ALR inh	Ecoli growth	HNF4A DNA FP	LANA-H2B inh	FGF22 binding	UCH37 DUB inh	Beta2AR agonist
CCN(CC(=O)Nc1c(F)cccc1F)C(=O)CCNS(=O)(=O)c1ccc(C)c(C)c1	-5	0.69	3.0	-4.0	i	2.2	-4
O=C(NC1CCS(=O)(=O)C1)c1cccc(S(=O)(=O)N2CCCCC2)c1 (centres undefined)	-10	0.66	-2.1	0.5	.	4.1	-1
CCOC(=O)NC1c2ccccc2Oc2ccccc21	-15	0.7	-4.6	0.1	i	-2.7	-9
CCN(CCCNC(=O)COc1cc(=O)n(C)c2ccccc12)c1ccccc1	98*	0.74	-0.3	8.9	.	0.3	-4
N#C/C(=C\C=C\c1ccccc1)c1nc(-c2ccc(Cl)cc2)cs1	-2	0.68	7.3	1.5	i	-27	19
C/C(=N\NC(=O)c1ccccc1C)c1ccc(N2CCOCC2)cc1	9	.	-2.3	-5.4	.	.	-7
Cc1ccccc1OCC(=O)Nc1cnn(CCCC(=O)O)c1	-8	0.71	2.9	-0.4	i	2.8	0
CC(=O)c1ccccc1NC(=O)CN1C(=O)CS/C1=C\c1nc(-c2ccc(C)cc2)cs1	14	0.66	6.1	-2.4	.	-11	-3
C=C1SC(=Nc2c(C)cccc2Cl)N(C(=O)c2sc3ccccc3c2Cl)C12CCCCC2	-1	0.73	0.7	0.7	i	-0.2	-9
Cc1ccccc1-c1nnc(Cc2ccccc2)o1	-7	0.68	4.2	1.4	i	2.5	-7
O=C(O)/C=C\c1cc2c(cc1[N+](=O)[O-])OCO2	-4	0.71	-4.2	0.4	i	7.7	0
CN(C)c1ccc(-n2cccc2/C=C/[N+](=O)[O-])cc1	70	.	6.4	i	i	.	27
CCOc1cc(C(=O)NCCc2ccc(S(N)(=O)=O)cc2)cc(OCC)c1OCC	0	0.7	-4.4	3.1	i	4.9	-3
Cc1cc(NS(=O)(=O)c2ccccc2)no1	.	0.68	-3.7	11	i	0.8	2
CCSC1=C(C#N)C(c2ccc(C)o2)CC(=O)N1 (centres undefined)	10	0.68	0.3	0.9	i	0.7	-3
COc1cccc(N2C(=O)C(O)=C(C(C)=O)C2c2ccc(OC)c(OC)c2)c1 (centres undefined)	1	0.73	-2.0	1.4	.	12	-1
CCOC(=O)c1ccc(NC(=S)NCCc2ccc(F)cc2)cc1	1	0.65	0.9	-6.8	i	0.8	4
Cc1ccc(C)c(S(=O)(=O)N2CCN(C(=O)Cc3c(F)cccc3Cl)CC2)c1	.	.	0.7	-2.1	i	.	6
Cc1csc(NC(=O)c2ccc(=O)[nH]c2)n1	.	0.67	-4.7	-4.3	i	-1.4	4
COc1ccc2c(c1)OC[C@H]1[C@H]2N2C(=O)CN(CC3CCCO3)C(=O)[C@@]2(C)[C@H]1c1ccccc1 (some centres undefined)	-8	.	7.0	-3.0	i	1.6	3
Cc1c(N/C=C/C(=O)C(F)(F)F)c(=O)n(-c2ccccc2)n1C	21	0.71	0.2	-2.6	i	7.7	2
CCOc1ccc2oc(C(=O)OCC(=O)N3CC(C)OC(C)C3)c(C)c2c1 (centres undefined)	-3	0.66	-2.1	-1.5	i	-77	-2
COCCN(CC(=O)NCc1ccc(F)cc1)C(=O)CCC(=O)Nc1nccs1	2	0.8	-0.9	-0.5	.	0.2	-4
CCC(=O)Nc1ccc(NC(=O)CSc2nnnn2-c2ccc(OC)cc2)cc1	.	0.71	0.6	-4.9	i	5.2	-7
Cc1cnc(=O)[nH]c1SCC(=O)Nc1nccs1	97*	0.69	-0.8	1.8	i	1.0	-2
OCC(O)/C=N/Nc1nc(Nc2ccccc2)nc(Nc2ccccc2)n1 (centres undefined)	-1	.	0.2	-4.5	i	.	-9
O=[N+]([O-])c1nn(-c2ccc3c(c2)OCCO3)n(O)c1=NC1CCCCCC1	-27	0.68	-1.3	-2.4	.	5.5	-7
CC/C(O)=C1\C(=O)CC(c2ccccc2)CC1=NCCC(=O)O (centres undefined)	-3	0.69	1.8	-0.4	i	3.5	4

Source: PubChem
